D2 potentiator = potentiates the human D2 dopamine receptor allosterically; DiscoveRx D2 beta-arrestin cells, luminescence, 90 min; 100% = 57 uM dopamine signal; potentiation, % (no concentration beside the values); actives 0.23% (n = 360,000); AID 624464; active = potentiation of 50% or more; inconclusive = 30% to 50%; inactive = 30% or less;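 also: compound concentration not given in the record; tested on top of an EC20 dose of dopamine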
Target sequence (P14416 whole entry, looked up): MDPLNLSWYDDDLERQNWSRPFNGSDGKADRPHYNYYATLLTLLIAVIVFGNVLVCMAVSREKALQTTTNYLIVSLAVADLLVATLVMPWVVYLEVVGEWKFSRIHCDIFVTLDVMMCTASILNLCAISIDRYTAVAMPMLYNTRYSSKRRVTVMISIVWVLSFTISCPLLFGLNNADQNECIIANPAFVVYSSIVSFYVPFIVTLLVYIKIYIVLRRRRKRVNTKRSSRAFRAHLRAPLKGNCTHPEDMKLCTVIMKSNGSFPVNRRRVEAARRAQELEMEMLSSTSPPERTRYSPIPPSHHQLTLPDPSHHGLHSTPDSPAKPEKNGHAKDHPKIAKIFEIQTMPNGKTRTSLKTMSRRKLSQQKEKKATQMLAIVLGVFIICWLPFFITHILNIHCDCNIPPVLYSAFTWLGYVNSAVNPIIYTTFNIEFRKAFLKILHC
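PathHunter D2 cells, attached overnight at 37 deg C, received compound in DMSO plus dopamine at EC20 (50 nM final) for 90 min at 37 deg C. Beta-arrestin recruitment was read as luminescence after 1 h with detection reagent at ambient temperature.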
gsp ag = gsp mutant agonism. gsp mutant cells, cAMP HTRF, 30 min; control for the full effect not named in the record. Potency, µM (series often up to 76.9 µM), for the others: top-dose activation (cAMP increase), actives largely listed as activators. actives 0.13% (n = 340,000); active = well fitted activation curve with a large enough effect; inconclusive = small, poorly fitted or top-dose-only effect, or another doubt; inactive = no such curve, though single readings can be large or run the other way; cell line not stated here;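 also: phosphodiesterase inhibitor Ro 20-1724 added with compounds to block cAMP breakdown; potency is read from the fitted curve at half-maximal effect; nearly all actives have a fitted effect of over 60% in size; about a fifth of the inactives were tested at one dose only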
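Cells stably selected in G418 were plated at 2000/well, grown 16-24 hr, then given compounds in DMSO with the PDE inhibitor […] (300 uM solution added) for 30 min at 37C; cAMP was read by HTRF.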
D2 agonist = agonists of human D2 dopamine receptor (beta-arrestin). P14416. DiscoveRx PathHunter D2 beta-arrestin, luminescence, 90 min; 100% = 57 uM dopamine signal. activation, % (test concentration not listed). actives 0.084% (n = 360,000). AID 624465; in the data active = activation above about 40%; inconclusive = about 15% to 40%; inactive = below about 15%; also: compound concentration not given in the record; the text of the record calls up to 30% inactive
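Agonist mode: compounds alone added to overnight-plated D2 PathHunter cells for 90 min at 37 C, with 57 uM final dopamine (EC100) defining full response. Beta-arrestin recruitment detected by chemiluminescent reagent, read after 1 h at ambient temperature.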
CtBP-E1A inh = CtBP/E1A binding inhibition; AlphaScreen GST-E1A/His-CtBP binding, 1536-well; active compounds read low; control for the full effect not named in the record; activity change, % (no concentration beside the values); actives 0.49% (n = 340,000); in the data active means activity change below about -65%; inconclusive means about -30% to -65%; inactive means above about -30%; also: % is scaled to controls: 0 for no effect and ±100 for the full control effect
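Homogeneous bead-based format: GST-tagged E1A captured on glutathione donor beads, His-tagged CtBP on nickel acceptor beads; compounds precede bead addition by 2 h at 37 °C.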
gsp antag = antagonists of gsp mutant (McCune-Albright syndrome). actives 0.4% (n = 340,000). Potency, µM (top dose mostly 76.9 µM), without a hit: top-dose activity change, negative = inhibition, most hits filed as inhibitors. gsp-mutant cells, cAMP HTRF, 30 min; control for the full effect not named in the record. AID 624288; active = falling curve of any shape with a large fitted effect; inconclusive = falling curve, mostly with a smaller effect; inactive = flat or rising curve; cell line not stated here;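 also: intracellular cAMP measured with PDE inhibitor Ro 20-1724 present during compound exposure; potency is read from the fitted curve at half-maximal effect; % is scaled to controls: 0 for no effect and ±100 for the full control effect; nearly all actives have a fitted effect of over 65% in size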
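HTRF cAMP read-out (cAMP-d2 plus anti-cAMP antibody-K in lysis buffer, 30 min RT). Before lysis, cells are exposed to compounds with […] for 30 min at 37C in DPBS containing Ca/Mg, BSA and Tween 20.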
Six1-Eya2 blk = inhibitors of human Six1/Eya2 interaction; Q15475+O00167; AlphaScreen GST-Six1/His-Eya2 binding, biochemical; active compounds read low; control for the full effect not named in the record; activity change, % (test concentration not listed); actives 0.56% (n = 360,000); AID 651725; in the data active = activity change below about -65%; inconclusive = about -30% to -65%; inactive = above about -30%; also: % is scaled to controls: 0 for no effect and ±100 for the full control effect
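Homogeneous AlphaScreen proximity assay pairing GST-Six1 with His-tagged Eya2 (added as 5X mix: 250 nM and 500 nM) in 50 mM Tris pH 8.0, 300 mM NaCl, 1 mM TCEP. Glutathione donor and nickel acceptor beads; 1 h, 37 °C, dark.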
Active calls of the source: *; u = inconclusive; x = not tested or not shown; [ ] = remark or other dose. Compounds were not picked by outcome (roughly 1.4% active in at least one column).

Sample of the layout, six compounds:
SMILES	D2 potentiator	gsp ag	D2 agonist	CtBP-E1A inh	gsp antag	Six1-Eya2 blk
Cc1ccccc1NC(=O)CCC(=O)OCC(=O)c1ccc(-c2ccccc2)cc1	-13	-2%	-7.5	0	6%	-1
COc1ccc2c(C(=O)NCCCCO)c(-c3ccc(S(C)(=O)=O)cc3)sc2c1	-1	48%	-1.1	-6	-1%	9
Cc1ccccc1OCc1nnc(SCC(=O)O)n1-c1ccccc1	-17	4%	-4.4	x	2%	10
CCN(CC)C(=O)CSc1nnc(-c2c[nH]c3ccccc23)o1	0	0%	9.4	x	-7%	-1
Cc1nnc(SCC(=O)N2c3ccccc3Sc3ccccc32)n1N	6	18%	-1.5	9	6%	-3
CC(C)Oc1ccc(S(=O)(=O)N2CCOCC2)cc1NC(=O)CC1CC2CCC1C2 (stereo not drawn)	-5	-349%[inhibitor]	-1.4	0	x	2

All compounds of this part, from the start:
SMILES	D2 potentiator	gsp ag	D2 agonist	CtBP-E1A inh	gsp antag	Six1-Eya2 blk
Cc1ccccc1NC(=O)CCC(=O)OCC(=O)c1ccc(-c2ccccc2)cc1	-13	-2%	-7.5	0	6%	-1
COc1ccc2c(C(=O)NCCCCO)c(-c3ccc(S(C)(=O)=O)cc3)sc2c1	-1	48%	-1.1	-6	-1%	9
Cc1ccccc1OCc1nnc(SCC(=O)O)n1-c1ccccc1	-17	4%	-4.4	x	2%	10
CCN(CC)C(=O)CSc1nnc(-c2c[nH]c3ccccc23)o1	0	0%	9.4	x	-7%	-1
Cc1nnc(SCC(=O)N2c3ccccc3Sc3ccccc32)n1N	6	18%	-1.5	9	6%	-3
CC(C)Oc1ccc(S(=O)(=O)N2CCOCC2)cc1NC(=O)CC1CC2CCC1C2 (stereo not drawn)	-5	-349%[inhibitor]	-1.4	0	x	2
COc1cccc(NC(=O)CSc2nnc3c(n2)[nH]c2ccc(C)cc23)c1	-15	9%[15.4 µM]	-2.4	28	-9%	8
COc1ccc(C)cc1S(=O)(=O)Nc1cc(Cl)ccc1Cl	-6	1%	-16	-4	-7%	7
COc1cccc(CN2CCN(Cc3cccc(Oc4ccccc4)c3)CC2)c1OC	-41	u	-3.0	0	6%	u
CC(=O)c1sc2nc(=O)c(C)nn2c1C	0	-6%	-1.5	4	9%	2
O=c1[nH][nH]c(-c2ccccc2)c1C=Nc1ccc(OC(F)(F)F)cc1	-5	7%	-4.1	x	-6%	1
C#CCOCCOCCOCCNc1nc(N2CCN(C(=O)Cn3cc(CCO)nn3)CC2)nc(N2CCN(C(=O)[C@H](CCCCN)n3cc(CC(C)O)nn3)CC2)n1 (stereo partly drawn)	-8	x	-4.8	8	6%	8
O=C(CN(CCc1ccccc1)C(=O)c1csnn1)NC1CCCC1	-9	-49%	2.5	0	4%	5
Cc1nn(-c2cccc(Cl)c2)c2c1C(c1cccnc1)C(C#N)=C(N)O2 (stereo not drawn)	-6	u	-5.0	14	-6%	-4
Cc1nonc1NC(=O)Nc1cccnc1	19	-63%[inhibitor]	4.7	11	-7%	5
Cc1cccc(CN2[C@H](COCc3ccccc3)C=CS2(=O)=O)c1	-7	x	-3.8	8	x	1
NC(=S)NNC(=O)Nc1cccc(Cl)c1	0	11%	-1.4	14	10%	10
CCOc1ccc(N2C(=O)c3cccnc3C2Nc2ccc(OC)cc2)cc1 (stereo not drawn)	-7	-4%	-4.2	-4	2%	-3
Cc1cc(Cl)ccc1OCC(=O)Nc1nc(-c2cccs2)cs1	-27	8%	-5.3	4	-32%	-1
CCN(CC)c1ccc2nc3c4ccccc4c(=O)cc-3oc2c1	-1	23%	-6.3	-2	-2%	-1
ClC(Cl)(Cl)c1nc(N/N=C/c2ccncc2)c2ccccc2n1	1	3%	4.3	1	-8%	5
Cc1ccc2cccc(OC(=O)c3c(F)cccc3Cl)c2n1	-3	x	0.7	1	x	2
CC(Sc1nnc(-c2ccco2)n1C)C(=O)NC1CCCC1 (stereo not drawn)	5	-18%	1.4	1	4%	-1
CN(C)c1cccc(NC(=O)c2ccco2)c1	-5	-45%[inhibitor]	-4.6	-5	-1%	-2
COC(=O)Cc1c(C(=O)OC)nnn1-c1ccc(OC)cc1	-7	-24%	-4.9	-20	14%	-2
O=C(N=C1SC2CS(=O)(=O)CC2N1Cc1ccccc1Cl)C1CC1 (stereo not drawn)	-5	-34%	-4.8	-3	u	3
CCOC(=O)c1sc(NC(=O)CSc2nccn2C)nc1C	-18	28%	-6.6	-6	-7%	-1
OCCN1CN=C(Nc2nc3ccccc3o2)NC1	-14	3%	-3.5	28	10%	16
Cn1nnnc1SCC(=O)NC1CCCC1	-3	-3%	1.7	-1	5%	7
CN1CC[C@@H]2C(=O)N3CCc4ccc(-c5ccc6c(c5)OCO6)cc4[C@@H]3C[C@@H]21	x	x	0.7	-8	5%	-10
C=CCC1CCCC(=O)N2CC[C@H](O)C12 (stereo partly drawn)	-7	u	0.0	5	4%	1
O=C(COC(=O)C12CC3CC(CC(Br)(C3)C1)C2)Nc1cccnc1Cl	-19	3%[15.4 µM]	0.8	-9	4%	1
COc1ccc(C(C#N)CC(=O)c2ccc3c(c2)OCO3)cc1OC (stereo not drawn)	-13	-15%	-3.2	-10	x	6
COc1ccc(Cl)cc1NS(=O)(=O)c1cccc(C(=O)NCCCN2CCCC2=O)c1	-18	-4%	-2.9	0	-19%	25
CCCC(=O)N1CCN(c2ccc([N+](=O)[O-])c(NC(C)c3ccccc3)c2)CC1 (stereo not drawn)	2	7%	-0.5	-3	-6%	9
CCOc1ccccc1NC(=O)CSc1nc(=O)n(CCN2CCOCC2)c2c1CCCC2	7	12%[15.4 µM]	-2.1	4	0%	-9
Cc1cc(C)c(S(=O)(=O)Cc2ccc(Cl)cc2)c(=O)[nH]1	-3	-2%	5.4	-1	1%	1
CCOP(=O)(OCC)C(C#N)=C1SCN(c2ccccc2)CS1	-7	-8%[15.4 µM]	-4.2	-13	5%	-19
CCOC(=O)c1sc(=NC(=O)C2CC2)n(C)c1C	2	4%[15.4 µM]	-0.3	4	-6%	-4
Cc1cccc(-n2c(C)nc3sccc3c2=O)c1	-8	-2%	-2.2	7	16%	0
Cc1cc(=O)oc(C)c1C(=O)N1CCCCC1	-5	15%	-2.5	-3	-1%	10
C=CCOc1c(Cl)cc(CNc2ccc(N(C)C)cc2)cc1OC	24	14%	4.5	u	u	u
CC(=O)c1c(N2CCN(c3ccccc3)CC2)nc(=S)n(-c2ccccc2)c1C	-12	17%	-0.7	-1	9%	1
COc1ccc(C2=NN(CC(=O)NCc3ccco3)C(=O)CC2)cc1	14	-22%	-3.5	-2	-20%	-2
Cc1cc(C(=O)NCCc2ccc(Cl)cc2)c(C)o1	-13	6%	-0.9	1	-3%	-2
Cc1ccc(NC(=O)CN2C(=O)NC(C)(C)C2=O)cc1S(=O)(=O)N1CCCCCC1	2	21%[15.4 µM]	-0.4	0	4%	2
COc1ccc(CCNC(=O)Cn2c(=O)oc3ccccc32)cc1OC	2	11%	-0.3	-5	-3%	10
COc1ccc(OCCn2c(=N)n(CCO)c3ccccc32)cc1	-7	10%	-3.6	6	-7%	-2
COc1cccc(OCc2cc(C3Nc4ccccc4C(=O)N3Cc3ccco3)ccc2OC)c1 (stereo not drawn)	15	-39%[inhibitor]	-3.8	-2	-17%	-14
CC(C)(C)OC(=O)N(CCc1ccccc1)Cc1ccc(OCc2cccc(NC(=O)C3CCC3)c2)cc1	-1	x	0.8	13	0%	11
CC(C)C[C@H]1CNC(=O)C(=O)N1C[C@H](C)NC(=O)Cc1ccccc1	-16	u	-4.4	3	8%	7
Cc1c(C)c2cc(Cl)c(OCC(=O)N3CCN(c4ccc(F)cc4)CC3)cc2oc1=O	-8	-51%	1.5	3	-5%	-3
N=c1oc2ccc(Cl)cc2cc1C(=O)Nc1ccc(F)cc1	-4	1%[15.4 µM]	-2.7	1	11%	-4
Cn1c(N)c(C(=O)COC(=O)CC(NC(=O)c2ccccc2Cl)c2ccccc2)c(=O)n(C)c1=O (stereo not drawn)	-8	11%[15.4 µM]	-1.1	15	0%	-4
COc1ccc(OC)c(CNn2c(-c3ccccc3F)nc3ccccc3c2=O)c1	1	1%[15.4 µM]	1.9	-3	-28%	-2
COc1ccc(C(CNC(=O)Cc2c(F)cccc2Cl)N2CCCCC2)cc1 (stereo not drawn)	-5	-23%	-4.6	3	6%	-1
CCN(CC)C(=O)C1=C(C)NC(=S)NC1c1cccs1 (stereo not drawn)	-6	-14%	-7.6	x	1%	-2
O=C(N=C1SC2CS(=O)(=O)CC2N1c1cc(Cl)ccc1Cl)C1CCCO1 (stereo not drawn)	-26	17%	0.7	0	3%	4
NC(=O)N/N=C/c1ccc(N2CCOCC2)s1	4	u	-0.9	-6	u	-7
CCOC(=O)C1=C(CNCc2ccc(F)cc2)NC(=O)NC1c1cccc([N+](=O)[O-])c1 (stereo not drawn)	-7	4%[15.4 µM]	2.3	-2	11%	-6

(list continues)
SMILES	D2 potentiator	gsp ag	D2 agonist	CtBP-E1A inh	gsp antag	Six1-Eya2 blk
Cc1cc(C)cc(NC(=O)C(OC(=O)C2=COCCO2)c2ccccc2)c1 (stereo not drawn)	-8	-41%[inhibitor]	0.2	7	9%	2
c1ccc(-c2ccccc2OCCCCN2CCCCC2)cc1	-11	18%[15.4 µM]	-2.8	8	-4%	2
CCn1cnc2cc(NS(=O)(=O)c3ccc(C)cc3)ccc21	-6	4%	-1.5	3	-4%	3
COc1ccc(C2OC34CCCCC3C(C#N)(C#N)C2(C#N)C(=N)O4)cc1 (stereo not drawn)	-10	0%	1.2	-14	6%[15.4 µM]	-5
CC1=NN(c2ccccc2)C(=O)/C1=C\C=C1/N(C)c2ccccc2C1(C)C	-3	15%	-5.5	-9	u	u
O=C(CN1C(=O)C(=O)N(Cc2ccco2)C1=O)c1c[nH]c2ccccc12	-10	28%	-0.2	1	3%	u
CN1c2ccccc2C(O)=C(C(=S)Nc2ccc(F)c(Cl)c2)S1(=O)=O	0	9%[15.4 µM]	-0.2	6	40µM*	-25
COC(=O)c1cc2sccc2n1CC(=O)N(C)c1ccccc1	-11	-41%[inhibitor]	-5.9	x	2%	-1
O=C(NS(=O)(=O)Oc1ccc(Cl)cc1)OC[C@@H]1CCCN2CCCC[C@H]12	6	12%	-0.7	0	1%	5
CC1(C)CC(=O)c2cc(OCC(=O)NCC3CCCO3)ccc2O1 (stereo not drawn)	1	33%	-3.2	10	8%	2
Cc1ccc(C)c(C(=O)CN2C3=NCCCN3c3ccccc32)c1	-27	5%	-1.3	8	10%	-1
O=c1c2ccccc2nc(SCc2nnc(-c3ccccc3)o2)n1-c1ccc(F)cc1F	-17	-4%	-0.7	-6	15%	-10
O=C(NCc1ccccc1)c1ccc(NC2=NC3CS(=O)(=O)CC3S2)cc1 (stereo not drawn)	-10	-1%[15.4 µM]	-1.6	-2	18%	4

Assay outcomes: PubChem, National Center for Advancing Translational Sciences (NCATS)
